# Screening results: PubChem BioAssay, Johns Hopkins Ion Channel Center
# KCNQ2 block: KCNQ2 channel blockers in CHO-K1 cells – cell-based, FluxOR thallium flux, B-score, primary screen (AID 2156); O88943; 20 min; hits give low values; only compounds with negative scores are shown here; some inactives read as strong as hits; B-score at 10 µM; 310,000 compounds, 1.1% hits;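 active = fluorescence ratio B-score at most minus 3 library SDs, with starting brightness B-score within 2 library SDs, cut at about -5.5 in these data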
# Target sequence (O88943 whole entry, looked up): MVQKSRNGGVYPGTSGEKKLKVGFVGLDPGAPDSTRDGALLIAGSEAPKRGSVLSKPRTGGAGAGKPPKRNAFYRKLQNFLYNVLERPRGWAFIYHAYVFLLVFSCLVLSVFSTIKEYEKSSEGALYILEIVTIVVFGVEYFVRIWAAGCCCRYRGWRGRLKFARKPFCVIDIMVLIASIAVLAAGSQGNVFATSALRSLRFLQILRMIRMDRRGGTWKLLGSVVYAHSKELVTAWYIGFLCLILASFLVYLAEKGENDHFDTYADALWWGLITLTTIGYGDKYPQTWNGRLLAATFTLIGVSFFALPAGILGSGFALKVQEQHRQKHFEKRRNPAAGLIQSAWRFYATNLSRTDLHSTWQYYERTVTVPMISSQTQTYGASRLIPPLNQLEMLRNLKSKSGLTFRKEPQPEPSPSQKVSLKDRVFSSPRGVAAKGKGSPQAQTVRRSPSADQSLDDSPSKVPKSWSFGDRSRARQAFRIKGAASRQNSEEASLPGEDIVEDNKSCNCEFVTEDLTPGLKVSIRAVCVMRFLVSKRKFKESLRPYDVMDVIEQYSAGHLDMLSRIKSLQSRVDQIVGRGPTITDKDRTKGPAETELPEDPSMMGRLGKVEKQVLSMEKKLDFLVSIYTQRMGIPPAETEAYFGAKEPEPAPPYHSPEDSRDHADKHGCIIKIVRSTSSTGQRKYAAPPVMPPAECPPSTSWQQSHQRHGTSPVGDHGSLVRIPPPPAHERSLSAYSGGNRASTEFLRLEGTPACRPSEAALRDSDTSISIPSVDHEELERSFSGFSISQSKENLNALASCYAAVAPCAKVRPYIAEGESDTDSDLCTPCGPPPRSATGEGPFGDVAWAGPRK
# KCNQ2 block baseline: further read-out of KCNQ2 block, marked with its call; B-score; measured here: initial fluorescence intensity artifact check;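 brightness before thallium and not channel activity; 0 = typical well and far values either way flag optical interference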
# Starred values were filed as active, the others as inactive; i = inactive. These rows are one share of the data, so the mix of outcomes need not match the whole.
# Sample of the layout:
structure,KCNQ2 block,KCNQ2 block baseline
C=CCNC(=O)c1cc2c(=O)n3ccccc3nc2s1,i,0.62
CCC(C)C(NC(=O)OCc1ccccc1)C(=O)NCC(c1ccccc1)N(C)C (stereo not drawn),i,0.05

# Results, previewed entries included:
structure,KCNQ2 block,KCNQ2 block baseline
C=CCNC(=O)c1cc2c(=O)n3ccccc3nc2s1,i,0.62
CCC(C)C(NC(=O)OCc1ccccc1)C(=O)NCC(c1ccccc1)N(C)C (stereo not drawn),i,0.05
O=C(NC(=S)NCc1ccccc1)c1ccccc1,i,-1
COC(=O)c1n[nH]n(-c2cc(Cl)cc(Cl)c2)c1=O,i,0.15
COCCn1c(-c2ccc(-c3ccc([N+](=O)[O-])cc3Br)o2)nc2c1c(=O)[nH]c(=O)n2CC(C)C,i,0.1
O=[N+]([O-])c1cccc(CSc2ncnc3ccccc23)c1,i,-0.02
CCOc1c(C)cnc2c1c(=O)n(Cc1ccccc1F)c(=O)n2C,i,-0.36
O=C(CSc1nnc(CCCO)n1-c1ccccc1)NCCc1ccccc1,i,1.8
N#C/C(=C\Nc1ccccc1SC(F)(F)F)c1nc(-c2ccccc2)cs1,i,-1.4
CC(NS(=O)(=O)c1ccccc1)C(c1cccs1)N1CCOCC1 (stereo not drawn),i,-0.43
COc1ccc(COC(=O)c2cc([N+](=O)[O-])ccc2N2CCOCC2)cc1F,i,0.31
CNS(=O)(=O)c1cccc(C(=O)OCc2cc(Cl)cc3c2OCOC3)c1,i,-1.4
CC(C)(C)c1cc(CCC(=O)NN)cc(C(C)(C)C)c1O,i,-0.01
CCN(CC)S(=O)(=O)c1ccc(N2CCCC2)c(NC(=O)C2CCCCC2)c1,i,3.1
O=C(NC(=S)NCc1cccnc1)c1ccccc1,i,1.6
Clc1ccccc1-c1cc(COc2ccc3ccccc3c2)no1,i,-0.46
CCOc1ccc(N2C(N)=NC(N)=NC2(C)C)cc1,i,-2.3
O=C(CCO)c1ccc(O)cc1,i,-0.58
CC(C)NC(=O)c1ccc(-c2ccc(Cl)c(C(F)(F)F)c2)o1,i,-0.01
COc1ccccc1-c1coc2cc(OC(=O)N3CCOCC3)ccc2c1=O,i,0.98

# A section taken from the entries so far, as a working copy:
structure,KCNQ2 block,KCNQ2 block baseline
O=[N+]([O-])c1cccc(CSc2ncnc3ccccc23)c1,i,-0.02
CCOc1c(C)cnc2c1c(=O)n(Cc1ccccc1F)c(=O)n2C,i,-0.36
O=C(CSc1nnc(CCCO)n1-c1ccccc1)NCCc1ccccc1,i,1.8

# (listing goes on)
structure,KCNQ2 block,KCNQ2 block baseline
CC1=C(C(=O)N2CCN(C(=O)c3ccco3)CC2)C2(CCC(C)CC2)OC1=O (stereo not drawn),i,-1.4
CCOC(=O)c1ccc(N=C2NC(=O)CS2)cc1,i,0.6
COc1ccc(CCNC(=O)C23CCC(C)(C(=O)C2Br)C3(C)C)cc1OC (stereo not drawn),i,1.2
COCCNC(=O)COC(=O)c1cc(-c2ccc(OC)cc2)nc2ccccc12,i,0.84
Cc1ccccc1NC(=O)Cn1nnc(C(=O)NCc2ccco2)c1N,i,1.2
NNC(=O)c1cc(-c2cccs2)nc2ccccc12,i,-1.2
Cn1ncc(Br)c1N1C(=O)CCC1=O,i,2.8
CCOC(=O)c1nsnc1NCCSC(=N)N,i,0.85
CCOC(=O)C1=C(C)OC(N)=C(C#N)C1c1ccccc1 (stereo not drawn),i,-0.04
CC(C)Sc1nnc([C@H](Cc2c[nH]c3ccccc23)NC(=O)OC(C)(C)C)o1,i,-0.33
Cc1cc(C)n(CC(=O)NNC(=O)CCCOc2ccc(Cl)c(C)c2)n1,i,2
Cc1ccc(N(Cc2ccccc2)C(=O)c2cc(S(=O)(=O)N3CCOCC3)ccc2N2CCCC2)cc1,i,-0.46
O=C(NNC(=O)c1cccnc1)NC12CC3CC(CC(C3)C1)C2,i,-0.98
CN(C)c1ccc(C(=O)C(O)c2ccc(C(C)(C)C)cc2)cc1 (stereo not drawn),i,-0.45
CCC(C)C(NC(=O)C1CCC(=O)N1C(=O)OCc1ccccc1)C(=O)NC(C(=O)N1CCCC1C(N)=O)C(C)CC (stereo not drawn),i,-1.7
Cc1cc(C)c(OCC(=O)N2CC=C(c3ccccc3)CC2)c(C)c1,-6.9*,-0.43*
Clc1cccc2sc(N3CCOCC3)nc12,i,-0.51
COc1ccc(-c2c(C)nn3c(N)c(-c4ccccc4)cnc23)cc1OC,i,0.29
C=CCOc1ccc(/C=C/C(=O)OCC(=O)NCC(=O)Nc2c(C)cc(C)cc2C)cc1,i,0.61
CCC(C(=O)Nc1ccc(C(=O)N2CCCC2)cc1)c1ccccc1 (stereo not drawn),i,0.67

# Ordered by length of the SMILES (highest first): 6 of the compounds above
structure,KCNQ2 block,KCNQ2 block baseline
COc1ccc(CCNC(=O)C23CCC(C)(C(=O)C2Br)C3(C)C)cc1OC (stereo not drawn),i,1.2
COCCNC(=O)COC(=O)c1cc(-c2ccc(OC)cc2)nc2ccccc12,i,0.84
CCC(C(=O)Nc1ccc(C(=O)N2CCCC2)cc1)c1ccccc1 (stereo not drawn),i,0.67
CCOC(=O)C1=C(C)OC(N)=C(C#N)C1c1ccccc1 (stereo not drawn),i,-0.04
CCOC(=O)c1ccc(N=C2NC(=O)CS2)cc1,i,0.6
Cn1ncc(Br)c1N1C(=O)CCC1=O,i,2.8

# The list continues:
structure,KCNQ2 block,KCNQ2 block baseline
O=C1Nc2ccc(F)cc2C12SCCS2,i,-0.59
CCc1ccccc1NC(=O)CCNC(=O)Cn1ccc2ccccc2c1=O,i,0.01
O=C(Nc1cccc(-c2nc3ccccc3o2)c1)c1ccc(N2C(=O)C3C4C=CC(C4)C3C2=O)cc1 (stereo not drawn),i,-1.7
Cc1c(C)c2ccc(OCC(=O)N3CCN(c4cccc(Cl)c4)CC3)cc2oc1=O,i,-0.05
Cc1ccc(C(OC(=O)c2ccco2)C(=O)NC2CCCCC2)cc1 (stereo not drawn),i,-0.2
COc1ccc(S(=O)(=O)NCc2nc3nc(C)cc(C)n3n2)cc1OC,i,3.2
O=C(CNC(=O)C12CC3CC(CC(C3)C1)C2)N/N=C\c1ccccn1,i,-0.29
O=C(NCc1cccnc1)c1ccc(NC(=O)c2cccc([N+](=O)[O-])c2)cc1,i,1.2
O=C(CNS(=O)(=O)c1ccccc1)NCC(=O)N1CCCCC1,i,-0.53
COC(=O)c1sccc1NC(=O)Nc1ccc(C)cc1C,i,-1.6
Cc1ccc(CN(C)Cc2cc(=O)oc3cc(C)c(Cl)cc23)cc1,i,0.48
CSC(SC)=C(C#N)C(=O)c1ccccc1,-7.9*,1.8*
CCc1ccc2oc(=O)cc(CN3CCN(CCO)CC3)c2c1,i,0.79
Cn1c(=O)c2c(nc(N3CCCCC3)n2C)n(C)c1=O,i,0.27
COc1ccc(-c2nc(-c3cccc(C(F)(F)F)c3)no2)cc1OC,i,0.81
Cc1ccc(S(=O)(=O)N2CCN(S(=O)(=O)c3ccc(C)cc3)C2)cc1,i,-1
Cc1cccc(CSc2nc3ccncc3n2CC(=O)Nc2cc(C)cc(C)c2)c1,i,0.27
CC12CCC(C(=O)N(c3ccc(Cl)cc3)C1=O)C2(C)C (stereo not drawn),i,1.5
O=C(NNC1CC(=O)N(c2ccc(Br)cc2)C1=O)c1ccco1 (stereo not drawn),i,-0.61
O=C(Nc1cccc(S(=O)(=O)N2CCCC2)c1)c1ccccc1OC(F)F,i,0.08
COc1ccc(NC(=O)CC(Cc2ccc(Cl)cc2)C(=O)O)cc1 (stereo not drawn),i,-3.7
CCOc1ccc(NC(=S)NCCCN2CCN(c3ccc(OC)cc3)CC2)cc1,i,1.8
COc1ccccc1N1CCN(C(=O)CSc2nnc3n2C(C)(C)Cc2ccccc2-3)CC1,i,-0.65
CCOC(=O)c1cc(C(C)C)sc1NC(=O)COC(=O)CCS(=O)(=O)c1ccccc1,i,0.16
CCN(CC)C(=O)CN(c1ccc2c(c1)OCO2)S(C)(=O)=O,i,0.98
Cc1ccc2c(c1)N(CC(=O)NC1CCCc3ccccc31)C(=O)CO2 (stereo not drawn),i,-0.78
CCOc1ccc(CCNC(=O)COC(=O)/C=C/c2ccccc2OC)cc1OCC,i,-2
O=C(Nc1ccc(Cl)cn1)c1cc(S(=O)(=O)N2CCCCC2)ccc1Cl,i,0.05
CCOC(=O)CNC(=O)c1c(C)nn(C)c1Cl,i,0.89
Cc1csc2nc(O)c(C(=O)NC3CCCCC3)c(=O)n12,i,1.8
CNC(=S)N(CCc1ccc(OC)c(OC)c1)Cc1cc2c(C)cc(C)cc2[nH]c1=O,i,-0.17
COc1cnc(SCc2ccc(Cl)cc2Cl)nc1Cl,i,0.11
CCOc1ccc(NC(=S)N(Cc2ccc(N(C)C)cc2)Cc2ccco2)cc1,i,0.98
COc1ccc(NC(=O)Nc2nnc(-c3ccncc3)s2)cc1,i,0.36
Cc1cc(C)n(CCc2nc(-c3ccc(-c4ccccc4)cc3)cs2)n1,i,-0.45
C/C(=N\NC(=O)C1CC1)c1ccc(Cl)cc1,i,1.2
Cc1cc2nc(-c3ccc[nH]c3=O)n(Cc3cccc(F)c3)c2cc1C,i,0.05
O=c1cc(N2CCN(c3ccccc3)CC2)[nH]c(=O)n1-c1ccccc1Cl,i,-2.1
O=C(NC1CCCCCC1)c1cc(-c2ccccn2)nc2ccccc12,i,-1.1
O=C(N/N=C/c1c(O)ccc2ccccc12)c1cccnc1,i,2.9

# Continued:
# Fields: KCNQ2 block | KCNQ2 block baseline
> COc1ccc2c(c1)c1nc3n(c(=O)c1n2CC(=O)Nc1ccccc1)CCCS3
    i | -0.02
> C1=C(c2cccc3ccccc23)N2CCN=C2S1
    i | 0.91
> COc1cccc(CNC(=O)CCc2nnc3ccc(NCCCN4CCCC4=O)nn23)c1
    i | -0.67
> COCCn1c(-c2cc(OC)c(OC)c(OC)c2)nc2oc3cc(OC)ccc3c(=O)c2c1=O
    i | -0.28
> CCOC(=O)N1CCN(C(=O)C(C)SCc2ccccc2)CC1 (stereo not drawn)
    i | 1.6
> CN(C)Cc1c(O)ccc2occ(C(=O)c3ccc(F)cc3)c12
    i | -1.5
> CCOC(=O)c1ccc(NS(=O)(=O)c2ccc3c(c2)CCCN3C(C)=O)cc1
    i | 0.26
> O=S(=O)(Nc1ccncc1)c1ccc(Cl)c(Cl)c1
    i | 1.1
> C=CC1C(OC2OC(CO)C(O)C(O)C2O)OC=C(C(=O)OC)C1CC1CC(=O)CC(CC(=O)CCc2ccc(O)cc2)O1 (stereo not drawn)
    i | 0.32
> CCOC(=O)C(Cc1ccccc1)NC(=O)Cn1nnc(-c2ccc(SC)cc2)n1 (stereo not drawn)
    i | -1.1
> CC(=O)NCC1CCN(C(=O)C2CCC(=O)N(CCc3cccc(F)c3)C2)CC1 (stereo not drawn)
    i | 0.43
> CC(C)C[C@H](NC(=O)c1nc[nH]c1C(=O)NC1CCN(C(=O)OC(C)(C)C)CC1)C(=O)OC(C)(C)C
    i | -0.88
> CCc1ccc(OC(C)C(=O)N(Cc2ccco2)C2CCS(=O)(=O)C2)cc1 (stereo not drawn)
    i | 0.45
> COc1cccc(OC)c1C(=O)n1nc(C)cc1C
    i | 3
> CCCOc1ccc(N2C(=O)CC(SCCN)C2=O)cc1 (stereo not drawn)
    i | 1.2
> CCOc1ccc(-n2cc(-c3ccc(OC)c(OC)c3)[nH]c2=S)cc1
    i | 1.7
> C=CCNC(=O)Cn1nnc(-c2ccc(-c3ccc(OC)cc3)cc2)n1
    i | -1.5
> COC(=O)c1ccc(-c2ncc(-c3cccc4ccccc34)o2)cc1
    i | -0.67
> CCOc1c(Cl)cc(C(=O)Nc2ccccc2-c2ccccc2)cc1Cl
    i | -1.2
> Cc1ccc(Cn2c(C)c3cnn(CC(=O)NCc4ccccn4)c(=O)c3c2C)cc1
    i | 0.08
> C=CCn1c(NCc2ccccc2O)nc2ccccc21
    i | -0.29
> O=C(Nc1ncccc1O)c1ccc2c(c1)OCO2
    i | 1.5
> COc1ccccc1NC(=O)C1CCCN(C(=O)Nc2ccc(F)cc2)C1 (stereo not drawn)
    i | 2.3
> Nc1ccccc1SSc1ccccc1N
    i | 1.6
> CCOC(=O)Nc1cccc(OCC(=O)Nc2ccc(OC)cc2OC)c1
    i | 0.53
> Cc1cc(C)cc(N(CCC(=O)Nc2nnc(C)s2)S(=O)(=O)c2ccc(Cl)cc2)c1
    i | -0.26
> COC(=O)c1cc(S(=O)(=O)N2CCN(c3ccccc3)CC2)c[nH]1
    i | -0.66
> Cn1c2ccccc2c(=O)c2c(=O)n(Cc3ccccc3)c(-c3ccc(F)cc3)nc21
    i | -2.4
> O=C1C=CC(=O)N1N(c1ccccc1)c1ccccc1
    -6.2* | 0.69*
> CC(=O)c1ccc(NC(=O)c2ccc3c(c2)C(=O)N(c2ccccn2)C3=O)cc1
    i | -1.3
> O=C(CCc1nnc(-c2ccsc2)o1)N1CCc2c(Cl)cccc2C1
    i | -0.23
> COc1ccc(N(C(=O)c2snc(C(N)=O)c2N)C(C(=O)NC2CCCC2)c2cc(OC)ccc2OC)c(OC)c1 (stereo not drawn)
    i | -0.58
> CS(=O)(=O)c1ccc(-c2nnc(NC(=O)c3cccc(N4C(=O)CCC4=O)c3)o2)cc1
    i | 0.73
> COc1ccc2nc(N3CCCC3)c(C#N)cc2c1
    i | 4.2
> COc1ccc(OC)c(NC(=O)CCNS(=O)(=O)c2cccc3nonc23)c1
    i | 0.14
> O=c1ncc(F)c[nH]1
    i | -1.4
> COc1cccc(/C=C/C(=O)OCC(=O)NCc2ccco2)c1
    i | -0.28
> COC(=O)CCC(=O)OC1(C)C(=O)C=C2C=C(C3CC3)N(CC(C)C)C=C2C1=O (stereo not drawn)
    i | 0.04
> COc1ccc(N2Cc3ccc(C(=O)N/N=C\c4ccc(O)cc4O)cc3C2)cc1
    i | -1.5
> COc1ccc(C2=NOC(Cn3nc(C(=O)NCc4ccc5c(c4)OCO5)cc3-c3ccccc3)C2)cc1 (stereo not drawn)
    i | -0.63
> Cc1ccccc1OCCn1cnc2c(N)ncnc21
    i | 0.09
